Rango release inh = qHTS Assay for Inhibitors of RanGTP induced Rango (Ran-regulated importin-beta cargo) - Importin beta complex dissociation; Snurportin-1 (Homo sapiens) + GTP-binding nuclear protein Ran (Homo sapiens) + Importin …; Biochemical FRET Rango-importin beta, RanGTP-induced dissociation; Potency, µM (titrated, usually from 46.1 µM), without a hit: at the top dose activity change, negative = inhibition; 0.071% of 340,000 active; AID 540253, 2011; active means falling FRET ratio curve, often poorly fitted, with flat reads before Ran was added; inconclusive means other falling curves, or compound fluorescence or quenching; inactive means flat or rising ratio curve;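 also: potency is read from the fitted curve at half-maximal effect; % of control where 0% means no effect; nearly all actives have a fitted effect of over 45% in size; -100% = wells without RanGTP and RCC1; the record marks most hits as doubtful in a second field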
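FRET read at 45 min, room temperature: inhibitors block the CFP/YFP signal rise when RanGTP (0.6 uM Ran, 2 mM GTP, 0.2 uM RCC1) frees Rango (0.1 uM) from importin beta (0.25 uM). Pre-read after 5 min compound exposure flags interference.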
miR-21 FLuc = qHTS Assay for Modulators of miRNAs and/orActivators of miR-21; 340,000 tested, under 10 active; HeLa miR-21 FLuc reporter, luciferase, 48 h; Potency, µM (doses to about 38.3 µM), without a hit: at the highest dose reporter change, positive = more light; active = well fitted rising curve with a large enough effect; inconclusive = small, poorly fitted or top-dose-only effect; inactive = no such curve, though single readings can be large or run the other way;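 also: % of control where 0% means no effect; miR-21 action dims this reporter so a rising signal means less miR-21 action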
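HeLa cells stably expressing CMV-driven firefly luciferase with a downstream miR-21 binding sequence, endogenously expressing miR-21, were treated with titrations (up to about 40uM final) for 48 hours at 37 degree Celsius. Luciferase luminescence was read after lysis.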
Rango-impB inh = qHTS Assay for Inhibitors of Rango (Ran-regulated importin-beta cargo) - Importin beta complex formation | Rango CFP/YFP FRET sensor + importin beta, 45 min | Potency, µM (titrated, usually from 92.2 µM), for the others: top-dose inhibition of complex formation | 0.031% of 340,000 active | AID 540263, 2011; active = rising FRET ratio curve, often small or poorly fitted; inconclusive = mostly compound fluorescence or quenching in the first reads; inactive = flat curves in all reads;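 also: potency is read from the fitted curve at half-maximal effect; 0% = DMSO wells and 100% = buffer wells lacking importin beta; nearly all actives have a fitted effect of over 15% in size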
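FRET biosensor (snurportin 1 IBB flanked by EYFP and cerulean), 50 nM, with compound 5 min, then 0.125 microM importin beta in PBS, 1 mM DTT, 0.02% Tween-20, 0.1% BSA. CFP/YFP ratio read after 45 min at room temperature; pre-read flags interference.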
GLA inh pH 4.5 = qHTS Assay for Inhibitors of Human alpha-Galactosidase at pH 4.5; purified enzyme, 4-MU-alpha-Gal fluorescence, pH 4.5; Alpha-galactosidase A (Homo sapiens), P06280; activity change, negative = inhibition, % at 105 µM; 230,000 tested, under 10 active; AID 1467, 2008; inconclusive = small, poorly fitted or top-dose-only inhibition, or a rising curve; inactive = flat fitted curve, though single readings scatter; no compound was filed as active;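 also: 0% = full activity with enzyme and -100% = basal without enzyme; dose as in the result columns while the protocol names 77 µM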
Target sequence (P06280 whole entry, looked up): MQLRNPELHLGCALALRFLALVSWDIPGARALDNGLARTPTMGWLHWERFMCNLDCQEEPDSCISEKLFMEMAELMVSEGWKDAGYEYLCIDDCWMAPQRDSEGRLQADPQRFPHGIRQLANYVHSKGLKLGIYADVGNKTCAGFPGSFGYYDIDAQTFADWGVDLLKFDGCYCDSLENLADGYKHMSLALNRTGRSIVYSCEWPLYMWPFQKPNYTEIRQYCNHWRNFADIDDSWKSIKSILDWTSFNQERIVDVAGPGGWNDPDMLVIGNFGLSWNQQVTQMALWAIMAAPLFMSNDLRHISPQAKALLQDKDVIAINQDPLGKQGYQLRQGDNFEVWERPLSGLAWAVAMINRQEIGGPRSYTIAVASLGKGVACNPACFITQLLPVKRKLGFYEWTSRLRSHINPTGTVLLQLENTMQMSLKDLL
* marks the source's active call; other numbers are inactive results; ? = inconclusive; nt = no result given; & = joins results of further samples.

| miR-21 FLuc | GLA inh pH 4.5 | Rango-impB inh | Rango release inh | compound |
| --- | --- | --- | --- | --- |
| -1% | 0 | 1.2% | ? | COC(=O)c1cc(NC(=O)CC2C(=O)NCCN2C(=O)c2ccccc2)cc(C(=O)OC)c1 (centres undefined) |
| -1% | nt | -0.9% | -4% | COc1cccc(NC(=O)C2CCCN2C(=O)Nc2ccccc2)c1 (centres undefined) |
| 4% | nt | -0.1% | -12% | Cc1ccccc1OCC(=O)Nc1ccc2c(c1)C(=O)N(CCC(=O)O)C2=O |
| nt | nt | -8.8% | -14% | CC(Oc1cccc2cccnc12)C(=O)N/N=C/c1ccc2c(c1)OCO2 (centres undefined) |
| nt | nt | -1.5% | 1% | O=C1C(CN2CCCC2)CCCC1CN1CCCC1 (centres undefined) |
| -14% | nt | -2.5% | -6% | CC(CN1CCCCC1)OC(=O)c1ccc2c(c1)OCCO2 (centres undefined) |
| -2%&14% | nt | -1.6% | -6% | CCN1CCSc2ccc(C(=O)NCc3cccc(Br)c3)cc21 |
| nt | nt | 5.3% | 11% | CC(C)c1ccc(NC(=O)CSc2nc(=O)[nH]c3c2CCCC3)cc1 |
| -4% | -1 | -2.4% | 10% | O=S(=O)(O)c1nc2ccccc2n1Cc1ccc(Cl)cc1Cl |
| -57% | 2 | 2.4% | ? | CCOC(=O)c1c(C)nc(-c2ccccc2)nc1NC(C)=O |
| -1% | 4 | 0.8% | -1% | Cc1cc(C)nc(Oc2ccc([N+](=O)[O-])cc2)n1 |
| -22% | 11 | 0.7% | 5% | Cc1cccc(-n2nnnc2SCC(=O)c2cc(C)n(CC3CCCO3)c2C)c1 (centres undefined) |
| 1% | nt | 2.6% | -1% | O=C(N=C1SC2CS(=O)(=O)CC2N1c1c(Cl)cccc1Cl)C1CC1 (centres undefined) |
| nt | nt | 0.4% | 4% | O=C(CN1CCN(S(=O)(=O)c2ccc(F)c(Cl)c2)CC1)N1CCc2ccccc2C1 |
| 0% | 0 | 7.6% | 0% | CCCC(c1nnnn1Cc1ccc(F)cc1)N1CCN(CC)CC1 (centres undefined) |
| 1% | -2 | -6.5% | 3% | COC(=O)CCSCC(=O)Nc1cc(C)on1 |
| -44% | 6 | -3.0% | 8% | c1csc(-c2ccc3ccccc3n2)c1 |
| nt | nt | ? | -2% | Cc1ccc(NC(=O)COc2coc(CN3c4ccccc4CC3C)cc2=O)c(C)c1 (centres undefined) |
| nt | nt | -0.1% | -6% | O=C(C(=Cc1ccccc1)CN1CCCCC1)c1ccccc1 |
| -5% | 0 | 4.2% | -4% | O=C(COC(=O)CCc1c[nH]c2ccccc12)Nc1cc([N+](=O)[O-])ccc1Cl |
| 3% | nt | 0.5% | 2% | CCn1c(=O)c2ccccc2n(Cc2cccc(C)c2)c1=O |
| -3% | nt | 1.3% | 4% | O=C(Cn1nc(-c2ccc(F)cc2)ccc1=O)Nc1ccc2c(c1)OCCO2 |
| 0% | 3 | 0.1% | 0% | O=c1[nH]c(NCc2ccccc2)nc2c1CCC2 |
| nt | nt | 0.5% | ? | COc1ccc(S(=O)(=O)N(C)C[C@H]2Oc3ccc(NC(=O)C4CCCCC4)cc3C(=O)N([C@H](C)CO)C[C@@H]2C)cc1 |
| 1% | 1 | 1.2% | 3% | CC(=O)O[C@@H]1[C@H]2[C@@H](C[C@@H](C)[C@@H]3CCC(=O)[C@@]13C)OC(=O)[C@@H]2C |
| nt | nt | -1.5% | 0% | CN(CC(=O)Nc1ccc(Cl)cc1)C(=O)C1=COCCO1 |
| -10% | -1 | 1.4% | 2% | CC(=O)Nc1ccc(S(=O)(=O)NCc2cn3ccsc3n2)cc1 |
| -2% | nt | 3.8% | 6% | CCOCCc1c(O)nc(SCC(=O)N2CCOCC2)[nH]c1=O |
| -7% | -6 | ? | -24% | O=C(NNC(=O)c1cc2cc3ccccc3nc2s1)c1cccc(C(F)(F)F)c1 |
| nt | nt | -1.0% | -2% | C=CCNc1nc(C(=O)OCC(=O)Nc2ccccc2C(F)(F)F)cs1 |
| 0% | -12 | -0.2% | 0% | CCOC(=O)c1c(NC(=O)CSc2nnc(C)c(=O)[nH]2)sc(C)c1-c1ccc(C)cc1 |
| -7% | nt | 3.2% | -3% | COc1cccc(OCC(O)CNC(=O)c2oc3ccc(C)cc3c2C)c1 (centres undefined) |
| nt | nt | -1.8% | -5% | O=C(C1Cc2ccccc2CN1S(=O)(=O)c1ccccc1[N+](=O)[O-])N1CCOCC1 (centres undefined) |
| -10% | 1 | 0.6% | 23% | Nc1[nH]ncc1C(=O)Nc1cccc(C(F)(F)F)c1 |
| -4% | 6 | -2.7% | 0% | Cc1ccc(NCN2C(=O)c3ccccc3C2=O)c(C)c1 |
| -4% | 5 | -1.1% | -7% | Cc1ccc(S(=O)(=O)C(CCC(=O)N2CCOCC2)S(=O)(=O)c2ccc(C)cc2)cc1 |
| 4% | 3 | -3.3% | 1% | CC(Sc1nc2nn(-c3ccccc3)c(=O)c-2c2n1CCCCC2)C(N)=O (centres undefined) |
| 23% | nt | -0.4% | -8% | CCOC(=O)c1c(C)[nH]c(C(=O)N/N=C/c2cc([N+](=O)[O-])ccc2O)c1C |
| -2% | nt | 2.2% | -4% | O=C(Nc1ccccc1O)c1ccc2c(c1)C(=O)N(c1ccccc1)C2=O |
| 2% | -2 | -0.4% | 15% | Nc1nc(-c2nonc2N)no1 |
| -11% | -8 | -1.6% | -2% | O=C(Nc1ncc(Cc2ccc(C(F)(F)F)cc2)s1)c1ccc(-c2cccc([N+](=O)[O-])c2)o1 |
| -3% | nt | -3.3% | -3% | COc1ccc(C2(C)NC(=O)N(CC(=O)Nc3cccnc3Cl)C2=O)cc1 (centres undefined) |
| -6% | 1 | 0.0% | -14% | CCOC(=O)c1c(NC(=O)COc2ncnc3sccc23)sc2c1CCC2 |
| nt | nt | -1.0% | -3% | O=C(CNC1CCCCC1)Nc1cccc([N+](=O)[O-])c1 |
| -56% | 2 | 1.5% | -3% | C/C(=N\O)c1ccc2c3ccccc3n(C)c2c1 |
| 7% | 6 | -0.2% | -16% | CCn1c(SCC(=O)Nc2ccccc2N2CCOCC2)nnc1-c1ccccc1O |
| 2% | 6 | -4.5% | -15% | COC(=O)CCC(=O)Nc1ccccc1C(=O)Nc1ccccc1 |
| -3% | 2 | -0.9% | 5% | Cc1cc2nnc(SCC(=O)NCc3cccs3)n2c(N)n1 |
| -10% | -2 | -0.6% | 5% | Cc1noc(/C=C/c2ccco2)c1S(=O)(=O)N1CCC(C(=O)NC(C)c2ccccc2)CC1 (centres undefined) |
| nt | nt | -0.2% | -18% | O=C(Cc1ccc(NC(=O)C2CCN(C(=O)CCc3ccccc3)CC2)cc1)Nc1ccc(C(=O)N2CCOCC2)cc1 |

Continued.
| miR-21 FLuc | GLA inh pH 4.5 | Rango-impB inh | Rango release inh | compound |
| --- | --- | --- | --- | --- |
| 1%&-7% | 0 | 3.2% | 1% | COc1ccc(C)cc1NC(=O)c1ccc2c(SCC(=O)O)c3c(nc2c1)CCCC3 |
| -39% | 0 | 2.1% | -18% | CCc1cc2c(=O)n3c(nc2s1)-c1[nH]c2ccc(OC)cc2c1CC3 |
| 13% | nt | -4.5% | -20% | Cc1cccnc1NC(=O)c1cccc(S(=O)(=O)N2CCN(c3ccc(F)cc3)CC2)c1 |
| 0% | nt | -0.1% | -16% | CCc1nnc(NC(=O)CCC(=O)NC2CC2)s1 |
| nt | nt | 3.8% | 29% | CC(C)C(C)N(Cc1cccc(C(=O)O)c1)C(=O)c1ccc2ccccc2n1 (centres undefined) |
| -4% | -5 | -3.6% | -3% | CCOc1cccc(CNc2ccc(O)cc2)c1OCc1ccc(Cl)cc1 |
| 9% | -4 | 2.3% | 2% | CCOC(=O)C1C(=O)N(O)CC1c1cccc(Oc2ccccc2)c1 (centres undefined) |
| -2% | nt | -2.0% | -16% | CC(C)(C)NC(=O)C(c1ccc(F)cc1)N(C(=O)CCC(=O)Nc1ccccn1)C1CCCC1 (centres undefined) |
| 1% | 12 | 0.0% | 1% | Cc1ccc(OCC(=O)NNC(=O)C2CCN(c3ncccn3)CC2)cc1 |
| -9% | nt | 0.0% | 12% | Cc1nc(-c2ccc(NC(=O)c3ccc(Br)o3)cc2)cs1 |
| -5% | 1 | -0.1% | -1% | CCOc1cc(CN2CCN(C(=O)c3ccco3)CC2)ccc1OC |
| -4% | nt | -0.2% | -4% | Cc1ccc(NS(=O)(=O)N2CCOCC2)c(C)c1 |
| nt | nt | -1.8% | -22% | COc1ccc(C(CNC(=O)COc2cccc(C(F)(F)F)c2)N2CCCC2)cc1 (centres undefined) |
| -8% | 21 | ? | -13% | CCC(C)(C)n1nnnc1CN(Cc1ccco1)Cc1cc2cc3c(cc2[nH]c1=O)OCO3 |
| 1% | nt | 0.0% | -6% | CCn1cc(CN2CCCC(CNS(=O)(=O)c3cccc4cccnc34)C2)cn1 (centres undefined) |
| -3% | 0 | 1.0% | 4% | CCOC(=O)CSc1ccc(S(=O)(=O)N2CCCCC2)cc1[N+](=O)[O-] |
| -5% | -2 | -1.5% | -11% | COC(=O)c1ccccc1NC(=O)c1cc(-c2ccc(O)cc2)on1 |
| -1% | -4 | 1.1% | -8% | CC(Oc1cc(C(F)(F)F)cc(C(F)(F)F)c1)C(=O)NC(N)=O (centres undefined) |
| 4% | 0 | 1.0% | 14% | CCN(CC)CCN=C1CCCc2ccccc2N1 |
| 0% | 8 | -0.7% | 12% | O=C1OC2CC3CC1CC(O)(C3)C2 (centres undefined) |
| 7%&2% | nt | -1.9% | -7% | CCc1ccc(-n2c(=O)c3ccc(C(=O)NCCc4ccccc4)cc3n(CC(N)=O)c2=O)cc1 |
| 18% | 2 | 4.4% | -13% | Cc1ccccc1NS(=O)(=O)c1cc(C(=O)NCCC2=CCCCC2)ccc1Cl |
| 3% | 0 | -4.0% | 0% | CC(C)(C)c1ccc(CCC2OCC(C[N+]3(C)CCOCC3)O2)cc1 (centres undefined) |
| -14% | -5 | 0.4% | -7% | C#CCNC(=O)C1=C[C@@H](c2ccc(Br)cc2)C[C@@H](OCCCCO)O1 |
| -8% | -12 | -2.6% | 1% | Cc1cccc(NC(=O)COC(=O)c2cc(C)oc2C)c1 |
| -35% | 8 | -2.1% | -8% | O=C1c2ccccc2NC(c2ccco2)N1/N=C/c1ccco1 (centres undefined) |
| 4% | -8 | 7.4% | 26% | CCCCNC(=O)C1CC(=O)N(C2CCCCC2)C1 (centres undefined) |
| nt | nt | ? | -5% | NS(=O)(=O)c1ccc(NC(=O)NC2CC(=O)N(c3ccc4c(c3)OCCO4)C2)cc1 (centres undefined) |
| 4% | nt | -0.2% | -10% | CCOc1ccc([N+](=O)[O-])cc1CNC1CCCCCCC1 |
| -80% | -13 | 3.8% | 4% | O=C1/C(=C/c2ccco2)CCc2ccccc21 |
| -28% | nt | 5.0% | -13% | C=C(C)COc1ccc(-c2nc(N)ncc2-c2ccc(OC)c(OC)c2)c(O)c1 |
| 4% | -29 | 0.1% | 3% | O=C(CNC(=O)c1ccccc1)N/N=C/c1cn[nH]c1-c1ccccc1 |
| 4% | -9 | 0.0% | 0% | CC1CCN(CCOCCSc2ccc(Cl)cc2)CC1 |

Source: PubChem BioAssay (National Center for Advancing Translational Sciences (NCATS))

These rows are one share of the data (hit frequency here may not be typical).
